Screens as filed in PubChem.
CapD inh: inhibitors of Bacillus anthracis CapD enzyme; purified CapD enzyme, fluorescence intensity read-out; active compounds read low; some hits fall short of the stated cut; z-score (no concentration beside the values); 0.23% of 140,000 active; AID 492967;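 active = z-score under -4 in either of two replicates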;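 also: stock transfer was 100 nL into about 40 µL; score is relative to mean and spread of the plate; one replicate is shown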
AID504770: E. coli YBA685 growth inhibition, screen for V. cholerae RctB inhibitors; E. coli YBA685 rctB-dependent plasmid, OD600 growth, 3 h; active compounds read low; z-score (test concentration not listed); 0.27% of 130,000 active; AID 504770;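 active = z-score under -2 on both plates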;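 also: wells of about 30 µL received 100 nL stock; score is relative to mean and SD of the test wells; the first replicate is given; strong numbers were not always called active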
Numbers without * were called inactive; nt = not tested or not shown.

SMILES	CapD inh	AID504770
Cc1cc2nn(-c3ccc(Cl)cc3)nc2cc1NC(=O)c1ccco1	63	1.1
CCn1c(=O)c2ccccc2n(CC(N)=O)c1=O	nt	-0.85
O=C(C1CCCN1S(=O)(=O)c1cccc2cccnc12)N1CC=C(c2ccccc2)CC1 (configuration not stated)	-0.48	-0.35
N#CC1=C(N)N(c2ccc(F)cc2)C2=C(C(=O)CCC2)C1c1cc(Br)cs1 (configuration not stated)	1.3	nt
Cc1ccc2c(c1Br)/C(=N/N1C(=O)c3ccccc3C1=O)C(=O)N2	-2.6	2.2
CCOC(=O)c1cc(-c2ccccc2)[nH]c1N1CCN(c2ccccc2)CC1	34	nt
O=C(C(Sc1ccccc1)c1ccccc1)N1CCCc2ccccc21 (configuration not stated)	-0.39	-0.3
CC(C)N1C(=O)/C(=C/c2ccc(Br)cc2)SC1=S	0.16	0.75
Cc1ccn2c(NC(=O)c3ccc([N+](=O)[O-])cc3)c(-c3ccccc3)nc2c1	0.79	nt
Nc1c(S(=O)Cc2ccc(Cl)cc2)sc2nc3c(cc12)CCCC3 (configuration not stated)	-0.69	-0.35
CCCN(CCC)S(=O)(=O)c1ccc(C(=O)N2CC3CCC(CC3)C2)cc1	-0.67	-0.05
Cc1c(C)c(C)c(S(=O)(=O)NCCCN(C)C)c(C)c1C	-0.73	0.95
CSc1nc2sc3c(c2c(=O)[nH]1)CC(C)(C)OC3	3	-0.45
Cc1ccc(-c2oc3ccccc3c(=O)c2O)cc1	1.6	1.1
CCOC(=O)C1=C(c2ccccc2)OC(N)=C(C#N)C1c1cccnc1 (configuration not stated)	0.095	nt
FC(F)(F)c1cccc(NC(=S)N2CCCCC2CCN2CCOCC2)c1 (configuration not stated)	0.26	nt
CCOC(=O)c1c(C)n(Cc2ccccc2)c2ccc(OCC(O)CN3CCCCC3)cc12 (configuration not stated)	0.29	nt
Cc1ccc(N=Cc2c(N3CCCC3)nc3c(C)cccn3c2=O)cc1C	nt	-0.15
Cc1cccc(Cn2nc(-c3ccccc3)c(N3CCCCC3)cc2=O)c1	0.42	nt
CCOC(=O)c1ccc(Nc2ncnc3c2cnn3-c2ccc(Cl)cc2)cc1	-0.2	nt
O=C(CSc1nnc(-c2ccco2)o1)NCC(=O)c1ccccc1	0.16	-0.8
Cc1ccc2oc(-c3cc(NC(=O)c4ccc(C(C)(C)C)cc4)ccc3OC(=O)c3ccc(C(C)(C)C)cc3)nc2c1	0.72	nt
O=C(N/C(=C\c1ccc([N+](=O)[O-])cc1)C(=O)N(CCO)CCO)c1ccco1	0.01	nt
CCC(=O)NC1=NC(=O)/C(=C/c2ccc(OCc3ccccc3F)cc2)S1	-0.3	nt
COC(=O)c1cc(S(=O)(=O)C(C)C)c(S(C)=O)s1 (configuration not stated)	-0.6	nt
COC(=O)C(C)(C)Sc1nnc2c(n1)[nH]c1c(C)cc(C)cc12	nt	1.1
O=C(Nc1ccc(N2Cc3ccccc3C2)cc1)c1ncoc1-c1cccs1	nt	-0.15
Cc1cc(C(=O)NCCCN2CCN(c3ccccc3F)CC2)n(-c2ccccc2)n1	0.17	-0.15
Cc1cc(O)c(CN2CC=C(c3ccccc3)CC2)cc1C(C)C	nt	0.2
COc1ccc(N2C(=O)CCC2(C(N)=O)c2ccccc2)cc1 (configuration not stated)	0.36	-0.75
Cc1cccc(-c2nc(CS(=O)CC(=O)N3CCCCC3)c(C)o2)c1 (configuration not stated)	-0.27	-0.9
COc1cccc(NC(=O)Cn2ccc3c(OC)cccc3c2=O)c1	nt	-0.25
O=C1CSC2(C(=O)N(Cc3ccccc3)c3ccccc32)N1c1ccccc1 (configuration not stated)	-0.42	nt
COc1ccc(CCn2nnc(-c3ccc(NC(C)=O)c(Cl)c3)n2)cc1	nt	-1.2
COC(=O)c1scc(S(=O)(=O)C(C)C)c1Cl	1.6	nt
COc1cc2nc(CN(C)Cc3sccc3C)[nH]c(=O)c2cc1OC	nt	1.4
N#Cc1cc(N)ccc1Sc1cccc(C(F)(F)F)c1	43	-1.2
O=C(Nc1ccc(F)cc1F)N1CCC(N(C2CC2)S(=O)(=O)c2ccccc2)CC1	-0.52	nt
O=C1NCCN=C1CC(=O)c1ccccc1	nt	-0.15
c1ccc2nc(-c3cn[nH]c3-c3ccncc3)cnc2c1	3.2	nt
CCc1ccc(OCc2nnc(SCC(N)=O)o2)cc1	nt	-0.6
Cc1noc(C)c1S(=O)(=O)NC(C)C	0.81	-0.2
CC1=C(C#N)C(=O)N(C)C(=O)/C1=C/c1ccc(-c2cccc(Cl)c2C)o1	3.1	0.1
Cc1ccc(N2CC(C(=O)N3CCOCC3)CC2=O)cc1C (configuration not stated)	nt	-0.75
O=C(O)CN1C(=O)/C(=C/c2ccc(OC(=O)c3ccccc3I)cc2)SC1=S	-0.44	nt

Overlap with the part before: three entries, followed by the next part.
SMILES	CapD inh	AID504770
CC1=C(C#N)C(=O)N(C)C(=O)/C1=C/c1ccc(-c2cccc(Cl)c2C)o1	3.1	0.1
Cc1ccc(N2CC(C(=O)N3CCOCC3)CC2=O)cc1C (configuration not stated)	nt	-0.75
O=C(O)CN1C(=O)/C(=C/c2ccc(OC(=O)c3ccccc3I)cc2)SC1=S	-0.44	nt
Cc1nc(/C(N)=N/OC(=O)c2cccc(Cl)c2)c(C(F)(F)F)o1	0.56	1.2
CCOc1ccc(N2C=Nc3ccc(OCC)cc3C2)cc1	-0.49	-1.2
O=C(Nc1ccc(-c2nc3ncccc3o2)cc1)c1sc2ccccc2c1Cl	0.86	nt
O=C(O)C1(c2cccc(C(F)(F)F)c2)CCCC1	nt	1.1
O=C(O)CCNCc1ccccc1	0.76	-0.25
N[C@@H](CC(=O)OCc1ccccc1)C(=O)OCc1ccccc1	-0.2	nt
N#CC1=C(N)n2c(s/c(=C\c3ccc([N+](=O)[O-])cc3)c2=O)=C(C#N)C1c1ccc([N+](=O)[O-])cc1 (configuration not stated)	-0.09	nt
C/C=C/C(=O)Nc1ccccc1Br	0.23	-0.85
COC(=O)CSc1ncnc2ccsc12	2.6	-0.4
CN(CCO)c1c[nH]c(=O)[nH]c1=O	0.02	-0.8
O=c1c2cc(-c3ccccc3)sc2[nH]c(=S)n1Cc1ccco1	nt	1
CN(C)CCn1nnnc1SCC1=C(C(=O)O)N2C(=O)[C@@H](NC(=O)Cc3csc(N)n3)[C@H]2SC1	0.66	nt
Cc1cccc(C(=O)NN)c1	0.64	-0.2
Cc1nc(C)c(CCNC(=O)C2CCCCC2)s1	nt	0.35
O=C(Cn1cnc(Cl)c1Cl)NNC(=O)OCCc1ccc(Br)cc1	0.43	nt
CCOC(=O)N1CCN(CC(=O)Nc2ccc(F)c(F)c2F)CC1	nt	-2.3
CC1=C(C(=O)OC(C)C)C(c2ccc(C)o2)C2=C(CC(c3cccs3)CC2=O)N1 (configuration not stated)	5.1	-0.05
CC1=C(C(=O)OCC(C)C)Sc2ccc(C(F)(F)F)cc2N1	0.11	0.4
Cc1cc2nnc(SCC(=O)NC34CC5CC(CC(C5)C3)C4)n2c2ccccc12	0.73	nt
CC(NC(=O)c1cnc2n(c1=O)CCS2)C12CC3CC(CC(C3)C1)C2 (configuration not stated)	nt	-1
COC(=O)c1ccccc1Sc1c(-c2ccccc2)nc2ccccn12	0.45	nt
Cc1ccc(-c2nnc(C3CCN(S(=O)(=O)c4ccc(C)cc4C)CC3)o2)cc1	-0.21	0.1
O=C(Nc1ccc(SC(F)F)cc1)c1ccc(CO)cc1	nt	-0.8
COC(=O)/C(C#N)=C\c1c[nH]c2ccccc12	nt	-0.4
O=C(CSc1nc(-c2ccccc2)nc2c1Cc1ccccc1O2)Nc1ccccc1	69	0.4
COc1cccc(C(=O)c2ccccc2O)c1O	0.15	nt
Cc1ncc(CSc2ccccc2N)c(CO)c1O	0.015	-0.45
O=[N+]([O-])c1ccc2sc(SCc3nc4ncccn4c3Br)nc2c1	0.43	nt
COC(=O)C1=CN(Cc2ccc(Cl)cc2)C=C(C(=O)OC)C1c1ccc(OC)c(OC)c1OC	87	nt
COc1cccc2[nH]c(=O)c(-c3ccccc3)cc12	61	-0.7

One compound at a time, as listed above. Order of screens: CapD inh, AID504770
Profile of CCOC(=O)c1c(C)n(Cc2ccccc2)c2ccc(OCC(O)CN3CCCCC3)cc12 (configuration not stated) : 0.29, nt
Profile of Cc1nc(C)c(CCNC(=O)C2CCCCC2)s1 : nt, 0.35
Profile of O=C(C1CCCN1S(=O)(=O)c1cccc2cccnc12)N1CC=C(c2ccccc2)CC1 (configuration not stated) : -0.48, -0.35
Profile of CC1=C(C(=O)OC(C)C)C(c2ccc(C)o2)C2=C(CC(c3cccs3)CC2=O)N1 (configuration not stated) : 5.1, -0.05
Profile of Cc1ccc(-c2oc3ccccc3c(=O)c2O)cc1 : 1.6, 1.1

(more compounds)
SMILES	CapD inh	AID504770
OC(CNC1CCCC1)C(F)(F)F (configuration not stated)	0.33	0.2
CCCCn1c(=S)[nH]c2cc(S(=O)(=O)N3CCOCC3)ccc21	nt	1.1
CCc1cc2c(cc1C(=O)CC1(O)C(=O)Nc3ccc(Br)cc31)C(C)(C)CCC2(C)C (configuration not stated)	-0.16	nt
CCOC(=O)N1CCN(C(=O)CCn2c(=S)[nH]c3cc4c(cc3c2=O)OCO4)CC1	-0.03	-0.2
COc1ccc2c(c1)CCCN2Cn1nc(-c2ccccc2)n(-c2ccccc2)c1=S	1.5	0.1
O=C(O)c1ccc2[nH]c(=O)c(Cc3ccc(OC(F)F)cc3)nc2c1	12	nt
O=S(=O)(c1cc(Cl)ccc1Cl)n1ccnc1	-0.23	-0.15
N#C/C(=C\c1ccc2c(c1)OCO2)C(=O)N1CCCC1	-1.9	1.4
Cc1nc(CSc2n[nH]c(C(C)(C)C)n2)cs1	9.9	0.6
O=C(OCc1ccc([N+](=O)[O-])cc1)C1CCCN1C(=O)OCc1ccc(F)cc1 (configuration not stated)	-0.89	nt
Cc1ccc(S(=O)(=O)N2CC(=NN=C(N)N)C2)cc1	0.065	-0.8
COc1ccccc1-c1nnc(SCC2CNC(=O)O2)n1-c1ccccc1 (configuration not stated)	nt	1.3
O=C1/C(=C/c2ccc(F)cc2)CS/C1=C\c1ccc(F)cc1	0.4	-1.8
CC(C)(C)N1CC(OC(=O)Nc2ccccc2)C1	0.28	-0.5
CN(C)C(=O)CSc1n[nH]c(-c2ccccc2)n1	nt	1.4
O=C(O)CSCC(=O)Nc1cc(C(F)(F)F)ccc1N1CCCC1	-0.04	-1.2
CCOC(=O)C1=C(CC)NC2=C(C(=O)CCC2)C1c1ccccc1OCC (configuration not stated)	1.4	1
CC(=O)Oc1ccccc1C(=O)N1CCN(c2ccccc2F)CC1	nt	-0.3
CCC(C(=O)NC1CCCC(C)C1C)n1nc(C)n2c(cc3sccc32)c1=O (configuration not stated)	-0.18	0
Cc1cc(C(=O)CN2C(=O)c3ccccc3S2(=O)=O)c(C)n1C	nt	-0.2
CCC(=O)Nc1ccc(C(=O)OCc2ccccc2)cc1	0.46	0.15
COc1ccc(C(=O)NCc2ccc(C#N)cc2)cc1OC	0.64	0.5
O=C(Cc1ccc2c(c1)CCCC2)NC1=NCCS1	nt	-0.7
CCOC(=O)/C(C#N)=C/c1ccc(OC)cc1OC	-0.23	0
Cc1noc(C)c1COC(=O)[C@@H](NC(=O)c1ccccc1)C(C)C	nt	0
O=C1CN(C(=O)c2cccs2)c2ccccc2N1	nt	-0.45
O=C1OC(c2ccccc2)=N/C1=C\c1ccccc1OC(=O)c1ccc([N+](=O)[O-])cc1	0.48	nt
NNC(=O)CN1C(c2ccc(Br)cc2)=Nc2ccc(Br)cc2C1c1ccccc1 (configuration not stated)	-0.55	nt
COc1ccc(COCC(O)CN2C(C)CCCC2C)cc1OC (configuration not stated)	-0.085	-0.05
O=C(NCCN1CCOCC1)c1ccc(-n2c(=S)[nH]c3ccccc3c2=O)cc1	0.41	-1.7

In another format: two of the compounds above.
Fields – CapD inh	AID504770
CC(=O)Oc1ccccc1C(=O)N1CCN(c2ccccc2F)CC1
    nt	-0.3
CCOC(=O)C1=C(CC)NC2=C(C(=O)CCC2)C1c1ccccc1OCC (configuration not stated)
    1.4	1

(continued)
SMILES	CapD inh	AID504770
CC(=O)NCCc1nc2ccccc2n1CCc1ccccc1	2.3	-0.45
O=C(O)c1ccccc1C(=O)NCC(O)COc1ccc2ccccc2c1 (configuration not stated)	0.12	-1.5
Cc1nn2c3ccccc3nc2c2ccccc12	4.4	-0.15
O=C(Nc1ccc(Oc2cccc(C(F)(F)F)c2)nc1)c1ccco1	-1.2	-0.25
COc1cc(OC)nc(N2CCN(C(=O)c3ccccc3NC(=O)Nc3ccc(F)cc3F)CC2)n1	-0.3	nt
Cc1cc(C)cc(NC(=O)COC(=O)C2CC3C=CC2C3)c1 (configuration not stated)	nt	-1.2
Cc1ccc(NC(=O)c2cc(S(=O)(=O)NC3CCCCCC3)ccc2F)cc1	0.025	nt
Cc1ccc(-c2nc(CS(=O)(=O)CC(=O)Nc3c(C)cccc3C)c(C)o2)cc1	-0.22	-0.15
O=C(Nc1ccc2c(c1)S(=O)(=O)c1cc(NC(=O)C3CCCCC3)ccc1-2)C1CCCCC1	0.05	0
CC1(C)N=C(N)N=C(N)N1c1ccccc1	-0.43	-0.45
COC(=O)c1cc2c(cc1NC(=O)C1CCCN(S(=O)(=O)N3CCOCC3)C1)OCO2 (configuration not stated)	2.6	0.15
CCCn1c(SCc2ccc(C)cc2)nc(-c2ccccc2)c1-c1ccccc1	0.045	nt
O=C(O)Cc1c(C(=O)O)[nH]c2ccccc12	1.7	-0.55
Cc1nn(CC(O)Cn2c3c(c4ccccc42)CCN(C)C3=O)c(C)c1Br (configuration not stated)	1.9	-0.05
Cc1nn(S(=O)(=O)N(C)C)c(C)c1C	nt	-1.4
CC1C/C(=N\NC(N)=O)CC(C)(C)C1 (configuration not stated)	0.08	-0.85
O=C(O)C1c2ccccc2-c2ccccc21	-1.2	1.5
COc1cccc(-n2ccn(CC(=O)NCCc3ccccc3)c(=O)c2=O)c1	0.33	1

Compounds were not picked by outcome; about 0.39% have a hit in one of these screens.
